AmpC nodet inh – AmpC beta-lactamase inhibition, detergent-free assay; P00811; AmpC nitrocefin hydrolysis, absorbance 480 nm, no detergent; potencies from a single point are estimates; Potency, µM (titrated, usually from 28.7 µM), without a hit: top-dose activity change, negative = inhibition; hit rate 1.8% among 71,000; AID 585; active = falling curve, for most hits resting on a single point; inconclusive = weak or doubtful change; inactive = flat or rising curve; further: % of control where 0% means no effect; about half of the hits show no inhibition at the top dose; a quarter of the inactives give rising signals
Target sequence (P00811 whole entry, looked up): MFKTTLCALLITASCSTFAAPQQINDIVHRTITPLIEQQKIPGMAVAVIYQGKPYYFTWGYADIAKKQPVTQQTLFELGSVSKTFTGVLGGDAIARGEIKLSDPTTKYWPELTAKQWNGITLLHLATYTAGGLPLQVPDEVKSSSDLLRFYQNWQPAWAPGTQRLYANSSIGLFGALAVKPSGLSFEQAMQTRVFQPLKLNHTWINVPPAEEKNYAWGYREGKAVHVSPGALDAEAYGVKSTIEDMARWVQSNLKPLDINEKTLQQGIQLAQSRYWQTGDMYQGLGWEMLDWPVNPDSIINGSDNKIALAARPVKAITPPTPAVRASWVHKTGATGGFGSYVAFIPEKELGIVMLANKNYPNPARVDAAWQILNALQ
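Enzyme, pH 7.0 phosphate. Compound titrations were pre-incubated with AmpC for 15 min at room temperature before nitrocefin (stock 800 uM) addition; product formation was recorded at 480 nm every 20 s for 4 min.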
The depositor's hits bear a star; [ ] = dose if it differs, or a comment. Potency means the concentration at half of the fitted maximal effect. This is a subset; count on the stated rates, not on these rows.

Compound	AmpC nodet inh
CC(=O)Nc1cc(CN2CCCCC2)c(O)c2ncccc12	-2%[5.75 µM]
O=C(c1ccccc1)N(Cc1cccs1)C1CCS(=O)(=O)C1 (stereo unspecified)	11%
CC(C)COC(=O)N(C)c1ccc(C(O)(C(F)(F)F)C(F)(F)F)cc1	29%
CC1=C(\C=C/C(C)=C/C=C\C(C)=C\C(=O)O)C(C)(C)CCC1	44%
COCCNc1nc(SCC(=O)N2CCN(c3ccccc3)CC2)nc2ccccc12	113%
Cc1noc(C)c1COC(=O)c1cccc(S(=O)(=O)N2CCCCCC2)c1	43%
Cc1cn([C@H]2C[C@H](N=[N+]=[N-])[C@@H](CO)O2)c(=O)[nH]c1=O	2%
Cc1onc(-c2ccccc2)c1C(=O)N1CCN(S(=O)(=O)c2ccc3c(c2)OCCO3)CC1	88%
CCNc1nc(Oc2ccc(=O)[nH]n2)nc(SC)n1	5%
Cc1noc(C)c1-c1nc(N2CCN(C)CC2)c2ccccc2n1	32%
Cc1cc(C(=O)N[C@@H](c2ccccc2)[C@]2(C)C[C@H]2[C@@H](C)C(=O)Nc2ccc3ccccc3c2)no1	7%
COc1ccc(OC)c(NC(=O)Cn2cc(C(=O)c3ccco3)c3ccccc32)c1	3%
O=C(O)CCc1ccc(-c2ccc(Cl)cc2)n1Cc1ccco1	10%
CC(C)(C)P(=O)(c1ccncc1)N1CCCC1 (stereo unspecified)	-3%
COC1=CC(=O)C[C@@H](C)[C@]12Oc1c(Cl)c(OC)cc(OC)c1C2=O	80%
CC(=O)NC(CCS(C)(=O)=O)C(=O)Nc1ccc2c(c1)OCCO2 (stereo unspecified)	-11%
COc1nc2c(s1)C(=O)NCCC2	-4%
Cn1c(=O)c2c(nc(CN3CCOCC3)n2CC(=O)c2ccccc2)n(C)c1=O	15%
Cc1c(NC(=O)COc2ncnc3ccccc23)c(=O)n(-c2ccccc2)n1C	-3%
CCOC(=O)CNC(=O)c1sc(NC(=O)c2ccccc2F)nc1C	7%
CC1C(=O)C(C)C(c2cccs2)NC1c1cccs1 (stereo unspecified)	-1%
CCOC(=O)CNC(=O)c1ccccc1Br	-6%
CCCCCCn1c(N2CCC(C(N)=O)CC2)nc2c1c(=O)[nH]c(=O)n2C	20%
O=C(COC(=O)CCc1ccc(S(=O)(=O)N2CCCCC2)cc1)Nc1ccc2c(c1)OCO2	-5%
C[C@@H](Cc1ccccc1)NCCC(c1ccccc1)c1ccccc1	-3%[12.8 µM]
[O-][n+]1onc2c1CCc1c-2nc(-c2ccccc2)n1OCc1ccccc1	-13%
[O-][N+]1=C(c2cccs2)CN(O)C1	-14%
C=CCn1c(CC(=O)Nc2cccc(OC)c2)nnc1SCC(=O)NC1CCCCC1	40%
O=C(COc1ccc(-c2ccccc2)cc1)N1CCN(C(=O)c2cccnc2)CC1	120%
COc1ccc2cc(CN(CCO)C(=O)c3ccccc3F)c(=O)[nH]c2c1	19%
CCOC(=O)Cn1nnc(-c2ccc(S(C)(=O)=O)cc2)n1	22%
O=c1oc(-c2ccco2)nc2ccccc12	5%
Cc1cc(-c2nnc(SCC(=O)N3C(C)CCCC3C)o2)no1 (stereo unspecified)	10%
Cc1cc(N2C(=O)CC(N3CCN(c4ccc(C(=O)c5cccs5)cc4)CC3)C2=O)no1 (stereo unspecified)	76%
Cc1nn(-c2ccccc2)c2[nH]c(=O)c(CNCC3CCCO3)cc12 (stereo unspecified)	3%
O=C(Nc1nncs1)C1(c2ccccc2)CCCC1	1%
CCN1C(=O)/C(=C\N2CCN(c3cccc(Cl)c3)CC2)SC1=S	-7%
CC(C)Br	-14%
O=C(Nc1ccccc1Oc1ccccc1)c1ccc(Br)o1	3%
COCC(C)n1c(SCC(=O)NC(=O)Nc2ccc3c(c2)OCCO3)nc2ccccc2c1=O (stereo unspecified)	32%
Cc1occc1C(=O)Nc1ccc(S(=O)(=O)N2CCCC2)cc1	-3%
COc1ccc(C(=O)N2CCC(C(=O)NCc3ccccn3)CC2)cc1	-4%
O=C1N/C(=C\c2ccccc2)c2ccccc21	-1%
CCOC(=O)C1(CC)CC(CSc2nc3ccccc3[nH]2)OC1=O (stereo unspecified)	-2%
Cc1cc(Nc2cc(F)ccc2C)n2ncnc2n1	-17%
CCn1c(Cc2c(C)[nH]c3ccccc23)n[nH]c1=S	-5%
O=C(O)C1CC2(C1)CC(C(=O)O)C2 (stereo unspecified)	-6%[5.75 µM]
CC[C@@H]1CN2CC[C@@H]1C[C@H]2[C@@H](O)c1ccnc2ccc(OC)cc12	-9%
CC(=O)c1cc(-c2ccc(F)cc2)n(CCC(=O)Nc2cc(C)[nH]n2)c1C	20%
CCC(=O)N(Cc1cc2cc(OC)ccc2[nH]c1=O)c1cc(C)ccc1C	30%

Pulled one by one from the entries so far, two records:
Compound	AmpC nodet inh
CC(=O)c1cc(-c2ccc(F)cc2)n(CCC(=O)Nc2cc(C)[nH]n2)c1C	20%
C=CCn1c(CC(=O)Nc2cccc(OC)c2)nnc1SCC(=O)NC1CCCCC1	40%

The results go on.
Compound	AmpC nodet inh
NC(=O)c1nsc(C(=O)N(CC(=O)NCc2ccc3c(c2)OCO3)C2CCCC2)c1N	9%
COc1ccc2cc(CN(CC3COCCO3)S(=O)(=O)c3ccc(Cl)cc3)c(=O)[nH]c2c1 (stereo unspecified)	34%
O=C(c1cc(-c2cccnc2)nc2ccccc12)N1CCC2(CC1)OCCO2	37%
Cc1cc(C)c2c(n1)nn1c(NCCCN(C)C)cc(C)nc21	18%
COc1ccc(-n2c(O)c(C(C)=NCc3ccco3)c(=O)[nH]c2=O)cc1	5%
CCOC(=O)C(O)(c1ccc(N)c(OC)c1)C(F)(F)F (stereo unspecified)	-10%
COc1cc(NC(=O)COc2ccc(F)cc2)nc(OC)n1	2%
Nc1n[nH]c(-c2ccc(Br)cc2)c1Cl	-21%
COc1ccccc1C1CC(c2ccc(Cl)cc2)Nc2ncnn21 (stereo unspecified)	67%
O=C1c2ccccc2C(=O)N1CCCc1nc(-c2ccccn2)no1	20%
CCCS(=O)(=O)N1CCCC(C(=O)NCCc2ccc(Cl)cc2)C1 (stereo unspecified)	42%
O=C(NCc1ccccn1)c1ccc(COc2ccc(Cl)cc2)o1	66%
OC1(c2cccnc2)CCN(Cc2nnnn2C2CCCCC2)CC1	4%
CC(NC(=O)c1ccccc1NC(=O)c1ccco1)c1ccccc1 (stereo unspecified)	2%
CCn1c(SCC(=O)Nc2nccs2)nnc1-c1ccc(C)cc1	-11%
CC(C)OC(=O)CSc1nnc(-c2ccccn2)n1C	-6%
COCC(=O)N1CCC[C@@]2(CCN(Cc3ccccc3OC)C2)C1	8%
CN(C)c1ncc2nc(CCc3ccccc3)c(=O)n(CCC#N)c2n1	47%
Cc1cc2c(ccc3[nH]onc32)n1	-8%
O=C(CCCc1ccccc1)NCCCN1CCOCC1	10%
Cc1cccc(NC(=O)CSc2nnc(-c3ccc(S(=O)(=O)N4CCOCC4)cc3)n2C)c1	88%
CN(C)S(=O)(=O)c1cc(C(=O)NCC2CCCO2)c(Cl)cc1Cl (stereo unspecified)	9%
CN(CC(=O)N1CCCC1)S(=O)(=O)c1cc(Cl)ccc1Cl	16%
CCc1ccc(C2CC(c3ccccc3)n3ncnc3N2)cc1 (stereo unspecified)	62%
CCc1ccc(CCN2CCCCC2)nc1	-1%[5.75 µM]
CN(N=O)C(=O)N[C@H]1C(O)OC(CO)[C@@H](O)[C@H]1O (stereo partly specified)	10%
CC1(C)OC(=O)C(=CNc2cccc(O)c2)C(=O)O1	-13%
O=C(c1cc(-c2ccncc2)nc2ccccc12)N1CCC2(CC1)OCCO2	51%
COc1ccc(OC)c(CN(CCCN2CCOCC2)S(=O)(=O)c2ccc(NC(C)=O)cc2)c1	71%
O=C(CCS(=O)(=O)c1ccc(Br)cc1)N1CCN(Cc2ccccc2)CC1	94%
OC[C@@H]1O[C@@H](n2cnc3c(Nc4ccccc4)ncnc32)[C@@H](O)[C@H]1O	-2%
Cc1cc(C)n2c(SCC#N)nnc2n1	0%
CCCn1c(CCc2ccccc2)nnc1SCC(=O)N1CCOCC1	22%
CCC[C@H]1C[C@H](C(=O)N[C@@H]([C@H]2O[C@@H](SC)[C@@H](O)[C@@H](O)[C@@H]2O)[C@H](C)Cl)N(C)C1	12%[12.8 µM]
CCC(=O)c1ccc(OCC(O)CN2CCOCC2)cc1 (stereo unspecified)	17%
CC/C=C/C/C=C/C/C=C/CCCCCCCC(=O)OCC	9%
CCCCCCC[n+]1ccc(-c2cc[n+](CCCCCCC)cc2)cc1	28%
CN(CCO)C(=O)CCC(=O)Nc1ccc(S(N)(=O)=O)cc1	3%
O=C(c1ccccc1F)N1CCN(c2ccccc2)CC1	11%
COc1ccc2c(-c3cccnc3)cc(=O)[nH]c2c1	2%
Cc1ccc2[nH]c3c(c2c1)CCC3=O	4%
O=C(O)[C@H]1CN[C@H](C(=O)O)C1	1%
COC(=O)c1c(N)n(-c2ccc(NC(C)=O)cc2)c2nc3ccccc3nc12	16%
Cc1nnc(SCCn2c(Br)nc3c2c(=O)[nH]c(=O)n3C)s1	-4%
O=c1c(CCc2ccccc2)nc2cnc(N3CCOCC3)nc2n1Cc1cccs1	10%
CCC(C)[C@H](NC(=O)NCc1ccco1)C(=O)O (stereo partly specified)	-2%
CCNC(=S)NCC	-7%
CCCOC(=O)[C@@H]1[C@@H](C(=O)O)[C@H]2CC[C@@H]1O2	0%[5.75 µM]
Cc1c(C)c2ccc(OCc3ccc(C(=O)O)o3)c(C)c2oc1=O	-23%
COc1ccc(Cc2nc3ccc(S(N)(=O)=O)cc3[nH]2)cc1OC	0%

(more compounds)
Compound	AmpC nodet inh
CCCn1c(SCC(=O)N2CCN(c3ccccc3)CC2)nc2ccccc2c1=O	64%
N#CC1=C(N)Oc2n[nH]c(-c3cccs3)c2C1c1ccsc1 (stereo unspecified)	-23%
Cn1c(=O)[nH]c(=O)c2c1nc(NCc1ccccc1)n2CCCc1ccccc1	5%
N#CCc1ccccc1[N+](=O)[O-]	-5%
CCOc1ccc2nc(NC(=O)CSc3nnnn3C3CCCCC3)sc2c1	-5%
O=C(Oc1ccccc1)N1CCC2(CC1)CN(c1ncccn1)C2	53%
CCOC(=O)N1CCN(Cc2ccccc2F)CC1	27%
COc1cc(NC(=O)CN2c3cccc4cccc(c34)S2(=O)=O)cc(OC)c1OC	68%
CC(C)(C)NC(=O)Cn1c(SCC(=O)NCc2cccs2)nc2ccccc21	14%
O=C(Oc1ccc(OC(=O)N2CCCCC2)cc1)c1ccccc1	2%
O=C(c1nc2ccccc2s1)N1CCN(c2ccccn2)CC1	12%
COCCNC(=O)C(c1ccc(C)o1)N(Cc1ccc(F)cc1)C(=O)Cn1nnc2ccccc21 (stereo unspecified)	112%
Cc1ccc(-c2cc(-c3nnc(SCC(=O)N(C)CCC#N)n3N)c3ccccc3n2)cc1	120%
CCCC(=O)Nc1ccccc1N1CCN(C(=O)C(C)C)CC1	14%
CC(=O)Nc1ccc(NC(=O)CNS(=O)(=O)c2ccc(C)cc2)cc1	-4%
O=C(Cn1c(=O)n(Cc2ccc3c(c2)OCO3)c(=O)c2ccccc21)N1CCCc2ccccc21	5%
Cn1cnc2c1c(=O)n(CC(O)CO)c(=O)n2C (stereo unspecified)	-5%
CN1/C(=C\C(=O)c2cccs2)Sc2ccccc21	0%
CC(/C=C/c1ccccc1)NC(N)=O (stereo unspecified)	-7%
COc1ccc(CNc2cc(-c3cccc(NS(C)(=O)=O)c3)ncn2)c(OC)c1	49%
COC(=O)c1oc2c(c1C)C1(CCC2)SCCS1	-4%
Cc1c(C(=O)Nc2ccc(F)cc2)oc2ccc(S(=O)(=O)N3CCCC3)cc12	-6%
CCC(=O)NC(C)C(c1cccs1)N1CCOCC1 (stereo unspecified)	4%
C=CCSc1n[nH]c(-c2ccc(OCCCC)cc2)n1	-4%
Cc1ccc(NC(=O)NC2(C(=O)NCc3ccco3)CCCCC2)cc1	-5%

A different layout for some results above:
O=C1N/C(=C\c2ccccc2)c2ccccc21
  AmpC nodet inh: -1%

CCN1C(=O)/C(=C\N2CCN(c3cccc(Cl)c3)CC2)SC1=S
  AmpC nodet inh: -7%

Cc1ccc(-c2cc(-c3nnc(SCC(=O)N(C)CCC#N)n3N)c3ccccc3n2)cc1
  AmpC nodet inh: 120%

O=C(c1cc(-c2ccncc2)nc2ccccc12)N1CCC2(CC1)OCCO2
  AmpC nodet inh: 51%

(continued)
Compound	AmpC nodet inh
Oc1ccc(Cl)c(Cl)c1	-17%
COC(=O)c1[nH]c2ccc(F)cc2c1NS(=O)(=O)c1ccc(OC)cc1OC	26%
N#Cc1nc(COc2cccc(Cl)c2)oc1N1CCN(c2ccccc2)CC1	-2%
CCOc1ccc(NS(=O)(=O)c2ccc3c(c2)CCN3C(=O)CCC(=O)O)cc1	7%
O=C1c2cccc3cccc(c23)N1CN1CCN(c2ccccn2)CC1	82%
CCCCn1c(SCC(=O)NC(C)(C)C)nnc1-c1ccco1	22%
C=CCN=C=S	0%
Cc1ccc(S(=O)(=O)N2CCN(C(=O)CN3CCOCC3)C2C(C)C)cc1 (stereo unspecified)	74%
CC(=O)Nc1cccc(OCC(O)Cn2cnc3ccccc32)c1 (stereo unspecified)	1%
